# Screening results from PubChem.
# TRPML1 blocker = inhibitors of human TRPML1 channel. Q9GZU1. TRPML1-inducible cells, Ca2+ dye fluorescence, FDSS; stronger effect = lower value; inhibition of EC80 agonist-evoked calcium signal. activity change, negative = inhibition, % (test concentration not listed). 0.02% of 390,000 active; in the data active means activity change below about -50%; inconclusive means about -30% to -50%; inactive means above about -30%;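 further: stimulus is agonist 54-4 at its EC80 concentration; on the % scale 0 is the no-effect control and ±100 the full control effect; compound concentration not given in the record; the text of the record puts the active cut at -80%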
# Target sequence (Q9GZU1 whole entry, looked up): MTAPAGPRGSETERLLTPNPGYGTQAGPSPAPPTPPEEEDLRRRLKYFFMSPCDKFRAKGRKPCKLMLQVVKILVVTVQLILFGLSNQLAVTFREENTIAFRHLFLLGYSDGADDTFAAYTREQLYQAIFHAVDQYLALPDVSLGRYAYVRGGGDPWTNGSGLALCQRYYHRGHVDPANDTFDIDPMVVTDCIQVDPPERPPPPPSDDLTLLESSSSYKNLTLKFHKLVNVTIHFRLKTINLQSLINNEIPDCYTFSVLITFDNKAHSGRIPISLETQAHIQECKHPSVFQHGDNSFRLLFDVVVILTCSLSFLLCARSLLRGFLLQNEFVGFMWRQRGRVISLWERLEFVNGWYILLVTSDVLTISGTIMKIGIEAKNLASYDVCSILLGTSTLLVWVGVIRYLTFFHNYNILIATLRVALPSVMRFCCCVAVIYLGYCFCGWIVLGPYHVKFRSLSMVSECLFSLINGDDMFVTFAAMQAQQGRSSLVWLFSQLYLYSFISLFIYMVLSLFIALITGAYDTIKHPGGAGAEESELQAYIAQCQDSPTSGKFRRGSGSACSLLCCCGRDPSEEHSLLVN
#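 Calcium fluorescence in TRPML1-DL cells induced overnight with Tet: a 110 s read after compound pin addition, then a 110 s antagonist read after challenge with 54-4 at 4 uM final (EC80).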
# TRPML1 agonist = activates the human TRPML1 channel; 0.12% of 410,000 active; TRPML1-expressing cells, Ca2+ dye fluorescence, FDSS; host cell line not named in the record; reference of the full effect not given here; AID 624414; activation, % (concentration not given with the values); Q9GZU1; in the data active = activation above about 50%; inconclusive = about 30% to 50%; inactive = below about 30%; further: 0% is about no effect; the text of the record puts the active cut at 80%
#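 In this qHTS format, compounds were pin-transferred onto Ca8-dye-loaded TRPML1-DL cells induced with Tet overnight, and intracellular Ca2+ fluorescence was recorded kinetically for 110 s after a 10 s baseline. A subsequent 4uM final 54-4 (EC80) addition followed by a second 110 s read served as the antagonist phase.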
# gsp antag = antagonizes gsp, the McCune-Albright syndrome mutation. gsp-mutant cells, cAMP HTRF, 30 min; control for the full effect not named in the record. Potency, µM (highest dose often 76.9 µM), for inactives: at the highest dose activity change, negative = inhibition, hits mostly inhibitors. 0.4% of 340,000 active. AID 624288; active = falling curve of any shape with a large fitted effect; inconclusive = falling curve, mostly with a smaller effect; inactive = flat or rising curve; cell line not stated here;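 further: intracellular cAMP measured with PDE inhibitor Ro 20-1724 present during compound exposure; potency means the concentration at half of the fitted maximal effect; on the % scale 0 is the no-effect control and ±100 the full control effect; nearly all actives have a fitted effect of over 65% in size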
#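 HTRF cAMP read-out (cAMP-d2 plus anti-cAMP antibody-K in lysis buffer, 30 min RT). Before lysis, cells are exposed to compounds with […] for 30 min at 37C in DPBS containing Ca/Mg, BSA and Tween 20.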
# gsp ag = gsp mutant agonism. gsp mutant cells, cAMP HTRF, 30 min; control for the full effect not named in the record. Potency, µM (highest dose often 76.9 µM), inactives show at the top dose activation (cAMP increase), actives largely listed as activators. 0.13% of 340,000 active; active = well fitted activation curve with a large enough effect; inconclusive = small, poorly fitted or top-dose-only effect, or another doubt; inactive = no such curve, though single readings can be large or run the other way; cell line not stated here;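 further: phosphodiesterase inhibitor Ro 20-1724 added with compounds to block cAMP breakdown; potency means the concentration at half of the fitted maximal effect; nearly all actives have a fitted effect of over 60% in size; about a fifth of the inactives were tested at one dose only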
#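 Cells in DMEM/10% FBS with G418 were pretreated with compounds in DMSO plus […] (300 uM stock) for 30 min at 37C. cAMP was measured by HTRF (cAMP-d2 plus anti-cAMP antibody-K) after 30 min at room temperature.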
# ClpP mod = qHTS Assay for Activators of ClpP; Potency, µM (top dose mostly 57.5 µM), inactives show top-dose activity change, negative = active; AID 651965, 2013; 1.9% of 340,000 active; purified B. subtilis ClpP, FRET peptide cleavage, 20 min; active = well fitted falling curve with a large enough effect; inconclusive = small, poorly fitted or top-dose-only effect; inactive = no such curve, though single readings can be large or run the other way; further: potency means the concentration at half of the fitted maximal effect; the source files actives as falling curves though it sought activators and does not explain the sign; nearly all actives have a fitted effect of over 65% in size; many hits overshoot -100%
# Target sequence (P80244 whole entry, looked up): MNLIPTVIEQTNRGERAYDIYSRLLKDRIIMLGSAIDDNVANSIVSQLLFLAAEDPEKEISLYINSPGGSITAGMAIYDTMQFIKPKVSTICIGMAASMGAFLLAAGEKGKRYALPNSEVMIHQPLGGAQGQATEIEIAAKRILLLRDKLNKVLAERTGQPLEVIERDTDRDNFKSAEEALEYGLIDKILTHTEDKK
#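 Purified B. subtilis ClpP, 10 microg/mL final in Tris/HCl pH8 with KCl, BSA, glycerol and Tween-20, cleaved an Abz/nitrotyrosine-quenched decapeptide. Fluorescence (ex 320, em 430) was read at 0 and 20 min at room temperature. Delta was normalized to 5.8 microM ADEP and DMSO/no-enzyme controls.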
# Menin-MLL FL inh = inhibitors of human menin-MLL interaction, wild-type MLL peptide | 290,000 tested, under 10 active | Fluorescence polarization, fluorescein-MLL peptide displacement from menin | FP activity change, % at 61.4 µM | AID 1766; inconclusive = falling polarisation curve, or a change in total fluorescence; inactive = total fluorescence flat and polarisation flat or rising; no compound was filed as active; the % refers to the polarisation; negative = inhibition;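 further: % of control where 0% means no effect; inhibitors lower the polarisation; unlabelled MLL peptide was the positive control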
# * = called active by the depositor; ? = inconclusive; · = not tested or not shown; & = joins results of further samples; [ ] = remark or other dose.
SMILES,TRPML1 blocker,TRPML1 agonist,gsp antag,gsp ag,ClpP mod,Menin-MLL FL inh
CCc1cccc(C)c1NC(=S)N(CCN(C)C)C(C)c1ccco1 (stereo not drawn),-8,-0.9,5%,3%,0.3%,-1.3
CC(C)(C)c1cc(C(=O)NCC(=O)OCC(=O)c2cccc([N+](=O)[O-])c2)cc(C(C)(C)C)c1,4,1.7,6%,-1%,-1.2%,2.6
CC(C)(C)C(C(=O)Oc1ccccc1)c1ccccc1 (stereo not drawn),-9,2.5,4%,21%,-1.9%,·
NC(=O)COc1ccccc1,9,1.3,5%,-1%,0.4%,1.2
CCc1ccc(OCc2nc(-c3ccc(OC)c(OC)c3)no2)c(Br)c1,-10,5.7,·,·,-9.9%,·
O=C(NCCOc1ccc(Cl)cc1)c1ccco1,25,0.0,4%,2%[15.4 µM],·,0.7
C=CCOCCN1C(=O)C2C3C=CC(C2C1=O)C1C2C(=O)N(CCOCC=C)C(=O)C2C31 (stereo not drawn),-5,0.0,12%,-16%[15.4 µM],·,-1.6
O=C(O)C(Cc1ccccc1)n1cccc1 (stereo not drawn),-8,-0.5,3%,-2%,-1.1%,2.1
Cc1ccc2c(c1)nnn2C1CCN(C(=O)C2CCCCC2)CC1,-19,1.1,7%,-2%,0.3%,-0.1
CCN(CC(=O)Nc1cc(Cl)ccc1C)C(=O)CC1CCCC1,14,0.8,-1%,3%[15.4 µM],-15%,·
COc1ccc(OC)c(/C=N/NC(=O)C(=O)N2CCCCCC2)c1,4,-0.2,-3%,3%[15.4 µM],-17%,·
COc1ccc(OC)c(C2=NS(=O)(=O)N(C)C(C(=O)Nc3cccc(C(C)=O)c3)=C2)c1,26,0.4,?,4%,1.1%,-0.1
Cc1ccccc1NC(=S)NCCc1c[nH]c2ccccc12,15,-0.2,6%,-6%[15.4 µM],·,1.2
CC(=O)c1ccc(NC(=O)c2cc(S(=O)(=O)N3CCOCC3)ccc2C)cc1,-2&1,0.2&0.0,0%,?,-0.1%&-1.8%,·
CCc1nc(SCC(=O)Nc2ccc(N(CC)CC)cc2)n[nH]1,1,1.0,-2%,6%[15.4 µM],·,·
O=C1NC(=Nc2ccccc2Cl)S/C1=C\c1cccc([N+](=O)[O-])c1O,-4,-0.4,-20%,-6%,·,19
CCOc1ccccc1N1CCN(C(=O)/C=C/c2cccc([N+](=O)[O-])c2)CC1,0,3.3,-11%,-14%,-1.8%,3.2
O=C(NC1CCCC1)c1ccc(CSc2nc3ccncc3n2Cc2ccc(F)cc2)cc1,-20&-6,0.5&0.3,0%,-21%,-6.9%&-2.7%,2.5
CO[C@H]1CC[C@@]2(C)[C@@H](CC[C@@H]3[C@@H]2CC[C@@]2(C)[C@H]3C[C@H](C(=O)N[C@@H](CCCN=C(N)N)C(=O)NCC(=O)N[C@@H](CC(=O)O)C(N)=O)O[C@]23CCCO3)C1,-13,0.7,-2%,·,-0.2%,·
Cc1ccc(C)c(N2N=C(C(=O)OCC(=O)N(C)c3ccccc3)CCC2=O)c1,18,0.4,-1%,-10%,-2.5%,·
CS(=O)(=O)N1CCc2cc(C(=O)Nc3cccc(F)c3)ccc21,3,-0.1,·,·,0.3%,·
CN(Cc1ccccc1)C(=O)c1[nH]c(C(F)(F)F)nc1-c1ccccc1,-13,1.2,·,·,0.5%,·
CCC(CC)Nc1ccc(C(CC(N)=O)NC(=O)Cc2ccc(Br)cc2)cc1[N+](=O)[O-] (stereo not drawn),-6,1.0,-7%,·,1.4%,-1.7
COc1ccc(Cn2c(C)nc3ccc([N+](=O)[O-])cc3c2=O)cc1,25,-0.9,-10%,-21%,-0.4%,0.1
COC(=O)c1ccc(N2CCN(C)CC2)c(NC(=O)c2cccs2)c1,18,0.9,2%,?,·,0.8
CCCn1cnnc1CNC(=O)C1CCC(=O)N(CCCc2ccccc2)C1 (stereo not drawn),4,-0.3,12%,-8%,·,-6.1
CC1(C)CC(C(CC(=O)O)c2ccccc2)CCO1 (stereo not drawn),-2,0.5,0%,2%,-0.1%,8.1
Cc1cc(C)n(CC(=O)NNC(=O)c2ccc(S(C)(=O)=O)cc2)n1,3,0.2,17%,-20%,·,·
O=C(c1ccc(COc2ccccc2Br)o1)N1N=C(C(F)F)CC1(O)C(F)F (stereo not drawn),12,4.0,-2%,-8%,3.8%,1.5
CCOc1ccc(NC(=O)CSc2nc3[nH]ncc3c(=O)n2-c2ccccc2OC)cc1,-3,-1.0,1%,7%,-1.5%,-0.3

# The last two entries of the section above open the next one:
SMILES,TRPML1 blocker,TRPML1 agonist,gsp antag,gsp ag,ClpP mod,Menin-MLL FL inh
O=C(c1ccc(COc2ccccc2Br)o1)N1N=C(C(F)F)CC1(O)C(F)F (stereo not drawn),12,4.0,-2%,-8%,3.8%,1.5
CCOc1ccc(NC(=O)CSc2nc3[nH]ncc3c(=O)n2-c2ccccc2OC)cc1,-3,-1.0,1%,7%,-1.5%,-0.3
CCS(=O)(=O)N1CCN(c2c(Cl)cccc2[N+](=O)[O-])CC1,19,7.8,-5%,8%,2.0%,0.4
CC(C)CC[n+]1ccccc1/C=C/c1ccc(N(C)C)cc1,-1,?,-15%,12%[15.4 µM],·,?
O=C1Cc2cc(S(=O)(=O)Nc3cccc(C(F)(F)F)c3)cc3c2N1CCC3,-2,-0.2,·,·,-2.2%,·
NC(=S)NN=CCn1cc([N+](=O)[O-])c(=O)[nH]c1=O,24,0.8,6%,-4%,·,·
O=C(C1CCCN(S(=O)(=O)c2cccc3nsnc23)C1)N1CCN(c2ccccc2)CC1 (stereo not drawn),-1,-0.3,·,·,-3.2%,·
O=C(NCc1cc(C(F)(F)F)ccc1Cl)c1cccc2c1C(=O)c1ccc(N3CCCCC3)cc1S2(=O)=O,4,-0.1,-5%,·,-1.4%,·
CSCCC(NS(=O)(=O)c1ccc(C)cc1)C(=O)N1CC=C(c2ccccc2)CC1 (stereo not drawn),10,-0.2,5%,19%,2.0%,·
CCOC(=O)c1cccc(NC(=O)CCn2nc(C)c3c(C)n(-c4ccccc4)nc3c2=O)c1,1,-1.3,·,·,0.1%,·
Nc1c(Cl)cc(-c2cn(CCC(=O)O)c(-c3ccncc3)n2)cc1Cl,11,-0.8,9%,·,-0.4%,·
CCOC(=O)N1CCN(C(=O)CN(CC)S(=O)(=O)c2cc(C)ccc2OC)CC1,-26,0.8,-7%,6%,1.2%,-1.2
O=C(c1cccc(COCC(F)(F)C(F)F)c1)N1CCN(c2ccccc2)CC1,2,0.8,-19%,6%,0.2%,-0.5
Cc1c(OCC(=O)N[C@@H](CSCc2ccccc2)C(=O)O)ccc2c3c(c(=O)oc12)CCC3,·,·,-3%,·,4.7%,0.6
O=C(OCc1cc2ccccc2[nH]c1=O)c1ccncc1,6,-1.1,-2%,-16%,-2.5%,3.5
CCCN1CN=C(NS(=O)(=O)c2ccc(NC(C)=O)cc2)NC1,49,0.0,·,·,-4.8%,·
CCCCOc1cc(CC2CNC(=O)N2)ccc1OC (stereo not drawn),9,-0.7,13%,·,0.3%,0.8&-5.9
CC(=O)Nc1ccc(S(=O)(=O)NC2(C(F)(F)F)NC(=O)N(CCc3ccc(F)cc3)C2=O)cc1 (stereo not drawn),12,1.5,·,·,0.9%,·
CCCN(CCC)Cc1c(C(=O)N/N=C/c2ccc(Br)cc2)nnn1-c1nonc1N,38,2.8,?,-7%[15.4 µM],·,5.1
Cc1ccccc1NC(=S)NC(=O)CCc1ccccc1,-13,1.5,11%,-4%,-0.4%,0.3
COc1ccc(N2CCN(C(=O)c3ccc(COc4ccc5c(C)cc(=O)oc5c4)cc3)CC2)cc1,-15,-0.7,-9%,-5%[15.4 µM],·,1.9
CC(C)CNC(=O)COc1cccc(C(=O)NCc2ccccc2)c1,16,3.2,2%,4%[15.4 µM],·,4.4

# Limited to gsp antag, Menin-MLL FL inh and TRPML1 blocker, for some of the entries so far:
Structure | gsp antag | Menin-MLL FL inh | TRPML1 blocker
CC(=O)Nc1ccc(S(=O)(=O)NC2(C(F)(F)F)NC(=O)N(CCc3ccc(F)cc3)C2=O)cc1 (stereo not drawn) | · | · | 12
CO[C@H]1CC[C@@]2(C)[C@@H](CC[C@@H]3[C@@H]2CC[C@@]2(C)[C@H]3C[C@H](C(=O)N[C@@H](CCCN=C(N)N)C(=O)NCC(=O)N[C@@H](CC(=O)O)C(N)=O)O[C@]23CCCO3)C1 | -2% | · | -13
O=C(c1ccc(COc2ccccc2Br)o1)N1N=C(C(F)F)CC1(O)C(F)F (stereo not drawn) | -2% | 1.5 | 12

# (cont.)
SMILES,TRPML1 blocker,TRPML1 agonist,gsp antag,gsp ag,ClpP mod,Menin-MLL FL inh
O=S(=O)(Nc1nc2ccccc2nc1NCCN1CCOCC1)c1cccc(Cl)c1,-14,0.2,-19%,-49%[inhibitor],-5.5%,4.2
CCc1nc2ccccc2n1CCCCOc1ccc(Cl)cc1,58,5.9,·,·,-1.9%,·
COc1ccc(CCNC(=O)CCNC(=O)c2ccc(Br)cc2)cc1OC,9,1.6,1%,-2%,-1.6%,-0.2
CC1CCN(S(=O)(=O)c2cn(CC(=O)Nc3cccc(C#N)c3)cn2)CC1,-11,-0.3,-5%,12%,·,7.0
COc1ccc(C(=O)c2ccc(OC)cc2O)c(O)c1,-8,-0.1,-20%,12%,-2.7%,0.6
CCN(C(=O)CCc1nnc2ccc(NCc3ccco3)nn12)c1ccccc1,17,2.4,-6%,?,-0.8%,·
NC(Cc1c[nH]c2ccc(OCc3ccccc3)cc12)C(=O)O (stereo not drawn),-6,-0.4,-2%,?,·,7.5
Cc1ccc(C)c(COc2coc(CN3CCN(C(=O)c4ccco4)CC3)cc2=O)c1,38,1.6,1%,3%,-3.9%,·
Cc1nc(Sc2nnnn2C)c2c3c(sc2n1)CCC3,27,0.6,-3%,-6%,?,-0.9
O=C(Nc1ccc(OC(F)(F)F)cc1)c1cc(-c2ccc(Cl)cc2)on1,-14,-0.2,·,·,0.8%,·
Cc1ccc(NC(=O)c2cnc(N3CCN(c4ccccn4)CC3)c3ccccc23)c(Br)c1,0,-0.7,-8%,-12%[15.4 µM],·,-3.9
Cc1cc(C)nc(NS(=O)(=O)c2ccc(NCN3C(=O)c4ccccc4C3=O)cc2)n1,13,0.2,·,22%,-0.6%,·
O=C(Cc1ccccc1)Nc1ccc2c(c1)CCC2,-3,-0.8,-7%,9%[15.4 µM],-0.3%,-1.0
O=S(=O)(c1ccc(Cl)cc1)N1CCC2(CC1)OCCN2S(=O)(=O)c1cccs1,17,-0.2,-17%,12%[15.4 µM],0.7%,·
Cc1ccc(Oc2cc(-n3nc(C)cc3C)ncn2)cc1,0,-0.3,-3%,14%,1.1%,-0.4
CCOc1ccccc1N(CC(=O)NC1CCCCC1)C(=O)CCC(=O)Nc1nccs1,-14,-1.6,-5%,-5%[15.4 µM],-0.1%,1.7
CCOc1ccc(-n2nc3ccc(NC(=O)c4ccc(C)cc4C)cc3n2)cc1,10,0.3,·,·,3.5%,·
